Screening results deposited in PubChem BioAssay by National Center for Advancing Translational Sciences (NCATS).
TRPML1 ag = agonists of human TRPML1 channel | Q9GZU1 | TRPML1-expressing cells, Ca2+ dye fluorescence, FDSS; host cell line not named in the record; reference of the full effect not given here | activation, % (no concentration beside the values) | actives 0.12% (n = 410,000) | AID 624414; in the data active = activation above about 50%; inconclusive = about 30% to 50%; inactive = below about 30%; note: 0% is about no effect; the text of the record puts the active cut at 80%
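Tetracycline-induced TRPML1-DL cells are seeded and incubated overnight before loading with a no-wash Ca2+ dye and quencher. Agonist activity is taken from the 110 s fluorescence read following compound pin-transfer on an FDSS, before EC80 54-4 challenge.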
Six1-Eya2 blk = Six1/Eya2 interaction inhibition. activity change, % (no concentration beside the values). Q15475+O00167. actives 0.56% (n = 360,000). AlphaScreen GST-Six1/His-Eya2 binding, biochemical; active compounds read low; control for the full effect not named in the record. AID 651725; in the data active = activity change below about -65%; inconclusive = about -30% to -65%; inactive = above about -30%; note: % is set by controls: 0 for no effect and ±100 for the full control effect
Target sequence (O00167 whole entry, looked up): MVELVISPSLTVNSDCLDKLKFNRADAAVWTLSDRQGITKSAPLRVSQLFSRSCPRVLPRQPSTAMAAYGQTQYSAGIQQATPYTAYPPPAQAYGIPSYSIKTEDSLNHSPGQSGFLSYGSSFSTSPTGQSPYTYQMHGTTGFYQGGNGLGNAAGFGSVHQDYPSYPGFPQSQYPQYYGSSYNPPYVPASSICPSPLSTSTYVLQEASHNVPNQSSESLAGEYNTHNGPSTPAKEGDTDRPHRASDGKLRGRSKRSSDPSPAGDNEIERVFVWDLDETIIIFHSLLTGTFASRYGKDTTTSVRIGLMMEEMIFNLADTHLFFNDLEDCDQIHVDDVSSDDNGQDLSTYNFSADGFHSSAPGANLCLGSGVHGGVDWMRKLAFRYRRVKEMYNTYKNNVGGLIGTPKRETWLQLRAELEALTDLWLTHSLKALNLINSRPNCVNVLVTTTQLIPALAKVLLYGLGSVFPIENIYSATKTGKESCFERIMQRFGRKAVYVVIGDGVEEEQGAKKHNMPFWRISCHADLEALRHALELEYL
Target sequence (Q15475 whole entry, looked up): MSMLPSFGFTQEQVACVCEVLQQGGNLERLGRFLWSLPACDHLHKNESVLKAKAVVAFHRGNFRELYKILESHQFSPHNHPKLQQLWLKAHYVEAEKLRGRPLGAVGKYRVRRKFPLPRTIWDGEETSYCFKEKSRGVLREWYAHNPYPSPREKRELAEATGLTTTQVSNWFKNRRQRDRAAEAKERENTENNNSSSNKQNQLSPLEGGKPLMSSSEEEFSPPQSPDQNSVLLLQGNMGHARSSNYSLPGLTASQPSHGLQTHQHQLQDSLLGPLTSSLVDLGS
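AlphaScreen luminescence read after one hour at 37 °C in darkness. Pin-transferred compounds met GST-Six1 and His-Eya2 protein (5X stock 250 nM/500 nM) plus glutathione donor and Ni-chelate acceptor beads (5X, 50 ug/mL).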
D2 potentiator = human D2 receptor positive allosteric modulation. DiscoveRx D2 beta-arrestin cells, luminescence, 90 min; 100% = 57 uM dopamine signal. actives 0.23% (n = 360,000). potentiation, % (concentration not given with the values). P14416; active = potentiation of 50% or more; inconclusive = 30% to 50%; inactive = 30% or less;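 note: compound concentration not given in the record; tested on top of an EC20 dose of dopamine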
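PathHunter D2 cells, attached overnight at 37 deg C, received compound in DMSO plus dopamine at EC20 (50 nM final) for 90 min at 37 deg C. Beta-arrestin recruitment was read as luminescence after 1 h with detection reagent at ambient temperature.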
D2 ag = agonists of human D2 dopamine receptor (beta-arrestin) | P14416 | DiscoveRx PathHunter D2 beta-arrestin, luminescence, 90 min; 100% = 57 uM dopamine signal | activation, % (concentration not given with the values) | actives 0.084% (n = 360,000) | AID 624465; in the data active = activation above about 40%; inconclusive = about 15% to 40%; inactive = below about 15%; note: compound concentration not given in the record; the text of the record calls up to 30% inactive
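DiscoveRx PathHunter D2 beta-arrestin cells (2,100/well) attached overnight, then compound-stimulated 90 min at 37 C in HBSS/10 mM HEPES/0.1% Tween-20 buffer; beta-galactosidase complementation read by luminescence after 1 h at ambient temperature. Dopamine 57 uM final (EC100) as control.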
PINK1 expr mod = modulators of PINK1 expression | PINK1 immunofluorescence, high-content cytometry, 24 h | Potency, µM (doses to about 76.6 µM), inactives show at the highest dose activation (PINK1 increase), actives largely listed as activators | actives 0.2% (n = 410,000) | AID 624263; active = well fitted activation curve with a large enough effect; inconclusive = small, poorly fitted or top-dose-only effect; inactive = flat fitted curve, though single readings scatter; cell line not stated here;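 note: potency is the fitted concentration of half-maximal effect; % of control where 0% means no effect; nearly all actives have a fitted effect of over 65% in size; a mitochondrial uncoupler was the plate control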
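Stable cell line treated 24 h with compounds at 5 concentrations (CCCP controls), then fixed and immunostained for PINK1 plus nuclear and cell stains; PINK1 immunofluorescence quantified by laser-scanning microplate cytometry.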
TRPML1 blocker = inhibitors of human TRPML1 channel; Q9GZU1; TRPML1-inducible cells, Ca2+ dye fluorescence, FDSS; active compounds read low; inhibition of EC80 agonist-evoked calcium signal; activity change, negative = inhibition, % (no concentration beside the values); actives 0.02% (n = 390,000); in the data active means activity change below about -50%; inconclusive means about -30% to -50%; inactive means above about -30%;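 note: stimulus is agonist 54-4 at its EC80 concentration; % is set by controls: 0 for no effect and ±100 for the full control effect; compound concentration not given in the record; the text of the record puts the active cut at -80%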
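Tet-induced TRPML1-DL cells loaded with Ca8 no-wash calcium dye were read kinetically on FDSS. Compound addition was followed by EC80 agonist 54-4 (4 uM final); inhibition was read over 110 s.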
An asterisk follows results filed as active; ? = inconclusive; . = no result given; [ ] = remark or other dose.

SMILES	TRPML1 ag	Six1-Eya2 blk	D2 potentiator	D2 ag	PINK1 expr mod	TRPML1 blocker
COc1ccc(CCN2C(=O)CC(N3CCN(c4ccccn4)CC3)C2=O)cc1OC (stereo unspecified)	-0.7	3	-17	0.0	-0.5%	16
COc1ccc(C(=O)N[C@H](C(=O)OCCCOC(=O)[C@@H](NC(=O)c2ccc(OC)cc2)C(C)C)C(C)C)cc1	0.1	0	-2	-1.9	1.8%	19
CC(C)(C)N(Cc1ccccc1)C(=O)c1cccs1	2.0	7	-4	0.6	-1.3%	8
Cc1cc(S(=O)(=O)Nc2ccccc2C(=O)O)ccc1Cl	1.1	50	0	-1.5	4.9%[38.3 µM]	0
Cn1c(SCC(=O)Nc2ccccc2Cl)nnc1C1CC1	-0.7	-15	-1	-2.2	8.3%	0
O=C(c1ccccc1)n1nc(-c2ccco2)nc1NCc1cccs1	-0.7	.	.	.	0.7%	1
Cc1ccc(C)c(NC(=O)c2ccc(=O)n(Cc3ccc(F)cc3)c2)c1	2.6	.	.	.	-4.4%	-15
FC(F)(F)c1nnc2ccc(NCc3cccnc3)nn12	0.1	-7	-1	-0.5	1.8%	26
CCCNC(=O)c1ccc2c(=O)c(O)c(-c3ccc(F)cc3)[nH]c2c1	2.8	?	1	1.8	-0.1%	-12
O=C(CSc1ccc(Cl)cc1)N1N=CCC1c1ccccc1 (stereo unspecified)	3.1	12	-1	-2.0	-0.1%	7
CC(C)Oc1ccc(/C(O)=C2/C(=O)C(=O)N(CCN(C)C)C2c2cccs2)cc1 (stereo unspecified)	0.3	1	4	-0.9	-0.4%	4
ClC1(Cl)CC1CSc1nnc(-c2ccncc2)o1 (stereo unspecified)	.	19	1	-1.4	-0.5%	.
Cn1nccc1C(=O)Oc1ccc(/C=N/NC(=O)c2ccccc2O)cc1	-0.2	-5	0	3.1	0.9%	-1
CC1=C(C(=O)Nc2ccccc2)C(c2coc3ccccc3c2=O)C2=C(CCCC2=O)N1 (stereo unspecified)	0.8	12	-18	-4.7	0.9%	-2
CCCC(=O)NC(=S)Nc1ccccc1C(F)(F)F	-0.8	2	-4	-4.9	6.0%	-4
CCOc1cc2[nH]c(=O)n(CCCN3CCCC3=O)c(=O)c2cc1OCC	-0.8	-3	-5	-0.8	8.3%	0
CCCn1c(SCC(=O)NCCc2ccccc2)nnc1-c1cccnc1	0.4	-9	-20	-0.7	-0.7%	-2
Nc1nc(-c2ccc(Cl)cc2)nc(-c2ccc(Cl)cc2)n1	0.5	19	0	-0.2	5.8%	1
O=C(O)CC(NC(=O)Cc1ccc(Cl)cc1)c1ccco1 (stereo unspecified)	-0.3	-10	-2	-2.1	2.2%	-14
CC(=O)Nc1c(C(=O)O)[nH]c2ccccc12	-0.4	-2	-12	-6.3	-1.6%	-12
CCC(C)(NC(=O)Cc1c[nH]c2ccccc12)C(=O)NC1CCCCC1 (stereo unspecified)	-0.1	0	-7	-2.5	-0.7%	-9
COC(=O)c1ccccc1NC(=O)c1sc2nc(C)cc(C)c2c1NC(=O)c1ccccc1OC	0.3	.	.	.	0.2%	-10
CCCn1c2c(c(O)c(C(=O)Nc3nccs3)c1=O)CCCC2	0.1	10	-7	-3.4	-0.6%	-2
O=C(Nc1ccc2c(c1)OCCO2)N1CCOCC1	2.1	6	11	12	-0.2%	-10
COC(=O)c1cc2c(=O)c3ccccc3oc2nc1/C=C/N(C)C	-0.4	15	-1	6.5	?	1
CSc1ccc(CN2CCN(CCC(C)C)C(CCO)C2)cc1 (stereo unspecified)	-0.5	-4	-21	-3.7	0.3%	30
Cc1cccc(OCCSc2nc3ccc(NC(=O)c4cccs4)cc3s2)c1	0.7	.	.	.	1.8%	-13
CC(=O)N1CCN(c2ccccc2NC(=O)COc2ccc(Br)cc2)CC1	1.3	-2	-16	-2.1	-1.6%[38.3 µM]	22
O=C(c1ccccc1)N1CCSc2sccc2C1=O	1.4	11	-1	-18	-1.2%	12
O=C(CSc1nnc(COc2ccccc2)o1)NCCc1ccccc1	0.7	12	-2	-2.0	-1.0%	-6
Nc1nnnn1/N=C/c1ccccc1	0.2	13	-6	-3.9	3.1%	0
O=S(=O)(c1cccnc1)N1CCn2cccc2C1c1ccccc1F (stereo unspecified)	-0.8	-12	-11	0.4	1.0%	22
Cn1c(SCC(=O)N/N=C/c2ccc([N+](=O)[O-])s2)nnc1-c1ccccc1	-0.3	-12	-1	-4.2	?	14
CC(NC(=O)CN1C(=O)NC2(CCCCCC2)C1=O)c1ccccc1 (stereo unspecified)	0.0	-11	-11	-2.3	0.8%	1
CNS(=O)(=O)c1cn(CC(=O)N2CCN(c3cccc(C)c3C)CC2)cc1S(=O)(=O)NC	0.2	.	.	.	1.6%	-12
CCOCCCNc1nc(=S)[nH]c2cc(OC)c(OC)cc12	-1.3	-83*	-32	-2.1	0.8%	-8
COc1cc(C(=O)NCCN2CCOCC2)cc(OC)c1OC	0.4	1	-8	-1.2	-3.2%[38.3 µM]	-12
O=C(Nc1ccc(-c2n[nH]c(=S)o2)cc1)c1ccccc1	2.0	-27	-4	1.2	0.4%	-5
CN(NS(=O)(=O)c1ccc(Br)cc1)c1nc(C(F)(F)F)nc2ccccc12	-0.2	0	-3	1.2	16µM*	-2
O=C(NCCS(=O)(=O)N1CCN(c2ccccc2F)CC1)c1ccc(Cl)cc1	0.0	5	10	-0.3	6.9%	-10
O=C1NC[C@H](Cc2ccccc2)N(CC2CCN(CCCC3CCCC3)CC2)C1=O	0.1	1	-22	-6.7	-0.3%	-11
Cc1cc(C(=O)OCC(=O)Nc2cccc(S(=O)(=O)N(C)C)c2)c(C)o1	0.6	-6	-13	-3.3	-0.4%	2
O=C(c1ccco1)N1CCN(S(=O)(=O)c2ccc(Cl)s2)CC1	-0.4	-1	-12	0.2	0.1%[38.3 µM]	-10
Cc1cc(C)n(-c2nc3ccccc3c(=O)n2OCC(N)=O)n1	-0.2	12	-2	-1.0	0.9%	-18
CCOc1ccc(OCC)c(NC(=O)c2ccc(CNc3c(N4CCOCC4)c(=O)c3=O)cc2)c1	1.4	-2	-17	0.0	-1.6%	10
Cc1ccc(C)c(CSc2cn(CC(=O)N3CCCC3)c3ccccc23)c1	1.0	.	.	.	2.7%	-5
Cc1ccc(Sc2ccc(CO)cc2[N+](=O)[O-])cc1	1.8	-4	-12	-4.5	1.1%	40
CC1CCCCN1Cc1nc2c(c(=O)n(C)c(=O)n2C)n1CCc1ccccc1 (stereo unspecified)	1.6	-2	-16	-2.2	3.6%	-15

Some of these compounds in order of formula weight, rising:
SMILES	TRPML1 ag	Six1-Eya2 blk	D2 potentiator	D2 ag	PINK1 expr mod	TRPML1 blocker
Cc1ccc(Sc2ccc(CO)cc2[N+](=O)[O-])cc1	1.8	-4	-12	-4.5	1.1%	40
O=C(Nc1ccc(-c2n[nH]c(=S)o2)cc1)c1ccccc1	2.0	-27	-4	1.2	0.4%	-5
COc1cc(C(=O)NCCN2CCOCC2)cc(OC)c1OC	0.4	1	-8	-1.2	-3.2%[38.3 µM]	-12
O=C(c1ccco1)N1CCN(S(=O)(=O)c2ccc(Cl)s2)CC1	-0.4	-1	-12	0.2	0.1%[38.3 µM]	-10
Cc1cc(C(=O)OCC(=O)Nc2cccc(S(=O)(=O)N(C)C)c2)c(C)o1	0.6	-6	-13	-3.3	-0.4%	2
O=C1NC[C@H](Cc2ccccc2)N(CC2CCN(CCCC3CCCC3)CC2)C1=O	0.1	1	-22	-6.7	-0.3%	-11
CN(NS(=O)(=O)c1ccc(Br)cc1)c1nc(C(F)(F)F)nc2ccccc12	-0.2	0	-3	1.2	16µM*	-2

New compounds follow:
SMILES	TRPML1 ag	Six1-Eya2 blk	D2 potentiator	D2 ag	PINK1 expr mod	TRPML1 blocker
O=C(Nc1cccc(F)c1)C1CCCCC1	0.9	5	-22	-0.8	0.3%	-3
C/C(=N\NC(=O)C(=O)Nc1ccc(C)cc1)c1ccncc1	-1.0	10	0	-7.1	6.5%	5
C=CCn1cccc(C(=O)Nc2ccc(SC)cc2)c1=O	.	-8	-2	1.2	0.5%	.
Cc1ccccc1N(C(=O)Cn1nnc(-c2cccs2)n1)C(C(=O)NCCC(C)C)c1ccco1 (stereo unspecified)	1.7	-7	-6	-6.0	-0.2%	13
Cc1ccccc1NC(=O)CSc1cn[nH]n1	-0.1	5	-8	4.9	1.9%	26
CC1=Nc2ccc(C)cc2/C1=C/c1c(N)n2c(S(=O)(=O)C(C)C)nsc2nc1=O	0.6	?	-28	-6.8	-5.2%	-3
COc1ccc2c(c1)-c1c(ssc1=S)C(C)(C)N2	1.4	-19	-10	-4.2	.	-16
Cc1cc2cc(CNC(=O)Nc3ccccc3)ccc2[nH]1	0.0	-17	-15	-3.7	2.1%	3
Cc1ccsc1C(=O)NC1CCCN(Cc2ccc(Cl)cc2)C1 (stereo unspecified)	0.8	6	-46	-6.0	1.1%	14
O=C(Nc1ccccc1)N1CCn2c1nc1ccccc12	0.8	1	-9	-7.7	-1.0%	7
O=C(C(Cc1ccccc1)n1cccc1)N1CCCCC1 (stereo unspecified)	-0.2	-9	-1	-2.8	-0.1%	-7
COC(=O)c1[nH]c(C)c(/C(O)=C2\C(=O)C(=O)N(CCN(C)C)C2c2ccco2)c1C (stereo unspecified)	-0.1	-1	-4	-1.6	1.1%	1
CC(C)(C)C1=C[C@@H](CO)C[C@@H](CO)C1	-0.7	3	6	0.8	3.4%	7
Cc1cc(S(=O)(=O)NC2CCCC2)ccc1F	-0.4	29	-4	-0.3	4.5%	-4
O=C(Cc1ccc(S(=O)(=O)N2CCOCC2)s1)N1CCN(c2cccc(C(F)(F)F)c2)CC1	0.4	5	0	1.5	-1.1%	-9
CCCCn1c(CCC(=O)O)nc2cc(S(=O)(=O)N(C)C)ccc21	0.7	6	2	3.9	2.0%	15
O=C(N/C(=C\c1ccco1)C(=O)N1CCOCC1)c1ccco1	0.0	-3	7	3.0	-0.3%	?
COc1ccc(N2CCN(C(=O)c3cccc(NC(=O)c4ccco4)c3)CC2)cc1	-0.4	-12	4	0.2	0.2%	-5
NC(=O)C1CCN(C(=O)c2cc(Cl)c3c(c2)OCCO3)CC1	-0.2	0	-4	-0.2	0.6%	-18
O=C(CNC(=O)c1cccs1)Nc1cccc(S(=O)(=O)N2CCOCC2)c1	-0.1	-5	-4	1.6	4.1%	-5
Cc1ccc(-n2ncc3c(=O)n(-c4cccc(C)c4)c(=O)[nH]c32)cc1	0.0	-7	-11	-10	2.9%	12
CCCC[n+]1ccn(C2=C([O-])c3ccccc3C(=O)/C2=N\S(=O)(=O)c2ccccc2)c1	-0.1	-8	10	8.9	-0.2%	41
CCOC(=O)C1=C(N2CCCCC2)c2cc3c(n2C1=O)CCCC3	0.0	-17	-9	-1.5	0.6%	-14
O=C(O)/C=C/c1ccc(S(=O)(=O)Nc2ccc(OCc3ccccc3)cc2)cc1	-0.5	-9	-10	-5.2	-0.9%	6
O=C(c1ccco1)N(Cc1cccnc1)c1nc2c(F)cccc2s1	0.7	.	.	.	-0.9%	6
Cc1ccc(-n2ncc3c2ncn2c(C)nnc32)cc1C	0.0	0	-11	1.6	.	11
